Ba CapD inh – Bacillus anthracis CapD inhibitors, primary screen, biochemical, fluorescence intensity; CapD gamma-glutamyltranspeptidase (Bacillus anthracis Ames Ancestor); purified CapD enzyme, fluorescence intensity read-out; hits give low values; some hits fall short of the stated cut; z-score (no concentration beside the values); 140,000 tested, 0.23% active; AID 492967, 2010;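 active = z-score under -4 in either of two replicates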;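 also: stock transfer was 100 nL into about 40 µL; score is relative to mean and spread of the plate; one replicate is shown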
AID504770 – growth inhibition of E. coli YBA685, primary screen, V. cholerae RctB inhibitors; 130,000 tested, 0.27% active; z-score (concentration not given with the values); E. coli YBA685 rctB-dependent plasmid, OD600 growth, 3 h; hits give low values;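 active = z-score under -2 on both plates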;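 also: wells of about 30 µL received 100 nL stock; score is relative to mean and SD of the test wells; the first replicate is given; strong numbers were not always called active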
An asterisk follows results filed as active; i = inactive; x = not tested or not shown; & = joins results of further samples. The list is partial; count on the stated rates, not on these rows.

molecule	Ba CapD inh	AID504770
O=C(NC1CCCCNC1=O)c1ccccc1 (stereo not drawn)	0.81	-0.05
COc1cc(OC)nc(Oc2ccc3c(-c4cccnc4)cc(=O)oc3c2)n1	0.39	x
O=C(NCc1ccccn1)c1ccc2c(c1)N(Cc1ccccc1)C(=O)c1ccccc1S2=O (stereo not drawn)	-0.55	-0.5
Cc1[nH]n(-c2ccccc2)c(=O)c1C(c1ccccc1F)c1c(C)[nH]n(-c2ccccc2)c1=O	-0.055	x
COc1ccc(N2C(=O)CC(N(C(C)=O)c3ccc(OC)cc3)C2=O)cc1 (stereo not drawn)	-0.41	-0.5
CCc1ccc(-n2c(SCC(=O)Nc3cc(OC)ccc3OC)nc3n[nH]c(C)c3c2=N)cc1	-0.54	x
Clc1cnc(-n2cccc2)c(Br)c1	-0.12	1.5
O=C(CCS(=O)(=O)c1cc(Br)cc2c1N(C(=O)C1CC1)CC2)NCc1ccc(F)cc1	-0.54	-0.8
O=C(O)CCCn1nc(-c2ccccc2)c2ccccc21	7.9	-0.15
CC12CC3(C)CC(C)(C1)CC(C(=O)NC(=S)NC(C)(C)C)(C2)C3	0.49	-0.3
CCOC(=O)C1=C(N)OC2=C(C(=O)CC(C)(C)C2)C1c1ccc(Cl)cc1Cl (stereo not drawn)	0.48	x
CC(=O)Oc1ccc(/C=C2\N=C(c3ccc([N+](=O)[O-])cc3Cl)OC2=O)cc1OC(C)=O	-0.25	x
O=c1[nH]c(=S)[nH]c(O)c1C=Nc1ccc(Br)cc1	-0.065	-0.55
Cc1ccc(C2C3=C(Nc4c2c(=O)[nH]c(=O)n4C)c2ccccc2C3=O)cc1 (stereo not drawn)	2.7	x
C[C@H](NS(=O)(=O)/C=C/c1ccccc1)C(=O)OC1CCOC1=O (stereo partly drawn)	x	0.55
COc1cccc(CCOC(=O)Nc2ccc(NC(C)=O)cc2)c1	-0.45	x
CC(=O)Nc1scc[n+]1Cc1ccccc1	0.32	0.25
Cc1cccc(OCc2nnc(SCC(=O)C34CC5CC(CC(C5)C3)C4)o2)c1	x	-0.5
COC(=O)COc1ccc(/C=C2\C(=O)NC(=S)N(c3ccc(C)cc3)C2=O)cc1OC	-0.35	x
CC(C)C12CN3CC(C(C)C)(CN(C1)C3c1ccccc1Cl)C2=O (stereo not drawn)	-0.45	x

The last 2 records of the section above lead into the next.
molecule	Ba CapD inh	AID504770
COC(=O)COc1ccc(/C=C2\C(=O)NC(=S)N(c3ccc(C)cc3)C2=O)cc1OC	-0.35	x
CC(C)C12CN3CC(C(C)C)(CN(C1)C3c1ccccc1Cl)C2=O (stereo not drawn)	-0.45	x
O=C(O)c1ccccc1NCc1cccs1	x	-1.2
COCC(C)Nc1ncnc2sc3c(c12)CCC3 (stereo not drawn)	x	-0.65
O=C1CCC(C(=O)OCC(=O)Nc2ccc3c(c2)OCO3)=NN1	x	-0.15
S=C(NCc1cccnc1)Nc1ccccc1	x	0.25
Cn1cnc2c(=O)oc3ccc(S(=O)(=O)NCCC4=CCCCC4)cc3c21	0.78	0.8
O=C(Nc1ccc(Br)cc1)C1C(=O)NC23CCCCC2C1c1ccccc1O3 (stereo not drawn)	-0.1	-1.1
Cc1ccc(N2CC(=O)N(C)C2=S)cc1	-0.065	-0.85
Cc1sc2ncn(CC(=O)NCC3COc4ccccc4O3)c(=O)c2c1S(=O)(=O)N1CC(C)CC(C)C1 (stereo not drawn)	-0.17	-0.3
CCOC(=O)c1cnn(C(N)=S)c1N	-1.6	-0.4
CCOC(=O)C(N)c1ccccc1 (stereo not drawn)	-0.075	x
COc1ccc(/C=C2\CCc3ccccc3C2=O)cc1	-1.5	x
C=CCC(NCc1cccs1)c1ccco1 (stereo not drawn)	0.24	-0.5
COc1ccccc1C1Oc2ccc(Cl)cc2C2CC(c3ccc(Cl)cc3)=NN21 (stereo not drawn)	1.1	x
Cc1noc(-c2cc3cc(Br)ccc3oc2=O)n1	-0.41	-0.05
CCOC(=O)N1CCC(NC(=O)C2CCCCC2)CC1	-0.34	-0.05
CC(C)N(C(=O)CSc1ccccn1)c1ccccc1	-0.86	-0.4
O=C(CSc1nc2ccc(Nc3nc(N4CCOCC4)nc(N4CCOCC4)n3)cc2s1)NCc1ccccc1	-0.045	x
Cn1c(CC#N)[n+](C)c2ccccc21	x	-1.1
CCc1nnc2c3cnn(-c4ccccc4)c3ncn12	7.3	-0.85
CC(CCc1ccccc1)NC(=O)COc1nc2ccccc2nc1N1CCOCC1 (stereo not drawn)	x	-0.15
CC1CN(/C=C(\C#N)S(=O)(=O)Cc2ccc(Cl)cc2)CC(C)O1 (stereo not drawn)	-0.31	x
CC1(C)CC(n2c(=S)[nH]c3c(c2=O)C2(CCCC2)Cc2ccccc2-3)CCO1 (stereo not drawn)	-0.45	x
Cc1nc2c(ccc3nc(NC(=O)c4ccc(N5C(=O)CCC5=O)cc4)sc32)s1	1.1	-1.4
CCOc1ccc(NC(=O)C(C)Oc2ccccc2)cc1 (stereo not drawn)	-0.45	1.1
O=C(COc1ccc2ccccc2c1Br)NCc1ccco1	-0.89	-0.05
Cc1cc(C)c(N=C(NC#N)Nc2c(C)cc(C)cc2C)c(C)c1	x	-0.8
O=S(=O)(CCC(F)(Br)C(F)(F)Br)c1ccccc1 (stereo not drawn)	0.14	0
COc1ccc(C(=O)N2CCN(c3c(C)cccc3C)CC2)cc1OC	0.28	0.1
Cc1cc(NC(=O)c2ccccc2)nc2c1c(=O)oc1ccccc12	3.3	0.7
O=C1CNCC(=O)N1CCc1ccccc1	-0.63	-0.35
Cc1cc(/C=C/C(=O)N2CCN(S(=O)(=O)c3cccs3)CC2)c(C)n1-c1ccnn1C(C)C	x	0.35
Cc1ccc(S(=O)(=O)NC(CO)Cc2ccc(O)cc2)cc1Cl (stereo not drawn)	0.2	x
Cc1cc(C)c2c(=O)[nH]c(=O)n(Cc3ccccc3)c2n1	x	2
COCCNS(=O)(=O)c1ccc(NC(C)=O)cc1	-0.085	x
COc1cccc2ccc(=O)[nH]c12	24	-0.9
CC(C)C(C(=O)OCC(=O)c1ccc([N+](=O)[O-])cc1)N1C(=O)C2C3C=CC(C3)C2C1=O (stereo not drawn)	0.19	x
O=C(OC/C=C/c1ccccc1)c1cccc(-n2cnnn2)c1	x	0.8
CCOc1cc(C2NC(=O)NC(C)=C2C(=O)OCCOc2ccccc2)ccc1O (stereo not drawn)	-0.04	x
CCOC(=O)c1cc(COc2c(Cl)cccc2Cl)on1	9.9	-1.1
CCOC(=O)Cc1c(C)nc2c(-c3ccc(Cl)cc3)c(C)[nH]n2c1=O	17	-0.85
Cc1ccc(OC(=O)c2cccnc2)cc1	x	1.7
O=C(NCc1ccccc1)C1CC(c2ccc(F)cc2)=NO1 (stereo not drawn)	-0.68	0.1
CCOc1ccc(NC(=O)C2CCCO2)cc1 (stereo not drawn)	x	-0.25
NC(=O)C1CCCN1c1c(F)c(F)c(C(=O)c2ccccc2)c(F)c1F (stereo not drawn)	x	1.1
Cc1ccc2cc(F)ccc2n1	0.93	x
Cn1nc(-c2ccccc2)c(-c2nc(-c3ccccc3Cl)no2)c1Cl	0.55	x
CC(CNC(=O)C1CCCN(C(=O)c2cc3sccc3n2C)C1)c1ccccc1 (stereo not drawn)	-0.03	0.05
O=C(COC(=O)c1cnccn1)NCc1ccccc1	x	0.4
CC(C)CC1NC(=S)N(Cc2ccccc2)C1=O (stereo not drawn)	x	-0.85
Cc1cc(C(F)(F)F)n(-c2nc(-c3ccc([N+](=O)[O-])cc3)cs2)n1	-1.1	x
Cc1cccc(NC(=O)CCC(=O)O)c1	i	-0.45
CCCNC(=O)C1CCN(C(=O)c2ccc(-n3ccc4ccccc43)s2)CC1	5.6	-1.1
O=C(COc1ccc(C(F)(F)F)cc1)c1ccc2c(c1)OCCO2	x	0.45
O=C(Cc1cc(=O)[nH]c(=O)[nH]1)NC1CCCC1	x	0.6
CC1(C)CC(=O)CC(=Nc2ccc(C(=O)O)cc2)C1	x	0.75
O=C(C1CCN(c2ncc(-c3ccc(Cl)cc3)cn2)CC1)N1CCc2ccccc2C1	-0.25	x
COc1cccc(CN2CCN(S(=O)(=O)c3ccccc3Br)CC2)c1	-0.24	x
COC(=O)C1Cc2ccccc2CN1CN1C(=O)c2cc(Cl)c(Cl)cc2C1=O (stereo not drawn)	x	-0.05
O=C(c1cc2ccccc2c(=O)s1)N1CCOCC1	-1.6	-0.85
Cc1ccc2oc(=O)c3cnn(CC(=O)N4CCCCCC4)c3c2c1	0.08	-0.85

In the list so far, these contain an NH in an aromatic ring.
molecule	Ba CapD inh	AID504770
Cc1[nH]n(-c2ccccc2)c(=O)c1C(c1ccccc1F)c1c(C)[nH]n(-c2ccccc2)c1=O	-0.055	x
CCc1ccc(-n2c(SCC(=O)Nc3cc(OC)ccc3OC)nc3n[nH]c(C)c3c2=N)cc1	-0.54	x
O=c1[nH]c(=S)[nH]c(O)c1C=Nc1ccc(Br)cc1	-0.065	-0.55
Cc1ccc(C2C3=C(Nc4c2c(=O)[nH]c(=O)n4C)c2ccccc2C3=O)cc1 (stereo not drawn)	2.7	x
CC1(C)CC(n2c(=S)[nH]c3c(c2=O)C2(CCCC2)Cc2ccccc2-3)CCO1 (stereo not drawn)	-0.45	x
Cc1cc(C)c2c(=O)[nH]c(=O)n(Cc3ccccc3)c2n1	x	2
COc1cccc2ccc(=O)[nH]c12	24	-0.9
CCOC(=O)Cc1c(C)nc2c(-c3ccc(Cl)cc3)c(C)[nH]n2c1=O	17	-0.85
O=C(Cc1cc(=O)[nH]c(=O)[nH]1)NC1CCCC1	x	0.6

(list continues)
molecule	Ba CapD inh	AID504770
CCn1cc(C2=NCCO2)c2ccccc21	x	-0.4
CC1(C)CC2CC(C)(CN2S(=O)(=O)c2ccc(Cl)s2)C1 (stereo not drawn)	x	0.95
Cc1cc(C)n(CC(=O)N2CCCC2)c(=O)c1C#N	x	-0.4
CSCCNC(=O)c1cccc(Cl)c1	1.2	0.45
Oc1c(Cl)cc(Cl)cc1C=Nc1ccc(N2CCOCC2)cc1	0.64	x
O=C(NCCc1ccc2c(c1)OCCO2)c1ccncc1	x	-0.45
CCNc1nc(OCC(F)(F)F)nc(N(c2ccccc2)c2ccccc2)n1	x	0.7
O=C(NN=C1CSc2sc(=O)sc2SC1)c1ccncc1	-0.28	x
N#CCc1ncc(CSc2nnnn2-c2ccccc2)s1	-0.27	0.3
CC1(C)OC(=O)C=C(c2ccc(Cl)cc2)O1	0.39	-0.15
O=C1Nc2ccccc2C12Nc1ccccc1S2 (stereo not drawn)	10	-1.1
C=CCN(CC=C)C(=O)C1CCN(S(=O)(=O)c2ccc(-n3cnnn3)cc2)CC1	x	-0.15
CCSc1nc2sc3c(c2c(=O)n1CC1CCCO1)CCC3 (stereo not drawn)	x	0.4
Cc1ccc(Sc2c(-c3ccccc3)nc3ccccn23)cc1	3.9	x
CCN(CC)c1ccc(C2C3=C(CC(C)(C)CC3=O)OC3=C2C(=O)CC(C)(C)C3)c(OCc2ccc(Cl)cc2)c1	-0.42	x
CC(=O)Oc1ccc(C(O)(C(F)(F)F)C(F)(F)F)cc1	0.16	-0.4
O=C(CSc1c2c(nc3ccccc13)CCC2)N1CCCC1	0.14	1.6
Cc1nn(-c2ccccc2)nc1CNC(=O)C1CCC1	0.12	-0.5
O=C(/C=C/c1ccc(Cl)cc1Cl)Nc1cccc2cnccc12	-0.63	-0.8
NC(=NCCC[C@H](N)C(=O)O)N[N+](=O)[O-]	0.54&-0.8	-0.6
O=c1[nH]cnc2scc(-c3ccc(F)cc3)c12	-0.1	0.3
Cc1c2cnn(-c3ccccc3)c(=O)c2c(C)n1CCCC(=O)NCc1ccccn1	0.15	0.05
CC1(C)CC(NCc2ccco2)=CC(=C(C#N)C#N)C1	-0.95	0.75
COC(=O)c1scc(S(C)(=O)=O)c1N=CN(C)C	18	-0.8
CC(C)(C)/C(O)=C/c1nc2cc(Cl)ccc2oc1=O	-0.35	0.65
O=C1/C(=C/c2c(NCC3CCCO3)nc3ccccn3c2=O)SC(=S)N1C1CCCCC1 (stereo not drawn)	0.4	1.1
CCOC(=O)CN1c2ccccc2NC1C(C#N)c1ccc(OC)cc1 (stereo not drawn)	x	-0.95
NNC(=O)CCCNc1ccc(Cl)cc1	-0.14	-1
COc1ccccc1N/C=C/C(=O)c1ccccc1	-1.6	-0.35
O=C(Nc1c(-c2cccs2)nc2ccccn12)c1cccc(C(F)(F)F)c1	0.24	-0.1
O=C(COc1ncnc2ccccc12)NC(=O)NC1CCCCC1	x	0.1
O=c1[nH]c2ccc(S(=O)(=O)N3CCCC3)cc2[nH]c1=O	13	-1.8
Cc1cccc(NC(=O)c2cccc(C)c2)c1	-0.54	2.7
COC(=O)c1c(N2C(=O)CCC2=O)sc2c1CCCC2	-0.46	-3.2*
NC1=NC(=O)CC(C(=O)O)S1 (stereo not drawn)	-0.39	-0.55
N#Cc1ccccc1NCC(=O)N1CCN(S(=O)(=O)c2ccccc2)CC1	x	0.3
CC(=O)Oc1ccc(/C=C2\N=C(c3ccc(-c4ccccc4)cc3)OC2=O)cc1OC(C)=O	2	x
CC(C)c1ccc(NC(=O)/C=C/c2ccco2)cc1	x	0.3
N#CCc1c(C#N)c(N)nc(N2CCN(S(=O)(=O)c3ccccc3)CC2)c1C#N	x	0.8
C/C(O)=C(\C#N)c1nc2ccccc2[nH]1	-0.68	-0.9
